UUG fidelity – alters start codon recognition fidelity in yeast; activity score, % at 18.7 µM; S. cerevisiae UUG-firefly luciferase reporter, luminescence/redox ratio; 350,000 tested, 0.13% active; AID 602363;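 active = replicate mean at a twofold rise or more, about +100% in these data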;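 note: firefly luciferase made from a UUG start codon reports start codon fidelity; reporter light over untreated wells divided by growth signal over untreated wells; some hits fall short of that in this replicate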
MT1-MMP act inh – inhibitors of human MT1-MMP activation; HT1080 RFP-PRO-GFP cells, GFP/RFP ratio fluorescence, overnight; percent of plate control window, DMSO zero; GFP/RFP ratio change, % at 20 µM; 360,000 tested, 0.061% active; P50281; AID 651647;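 active = GFP/RFP ratio change of at least 30% with cell ATP level not reduced by more than half and red fluorescence within 50% of control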; note: strong numbers were not always called active
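Compound: 20 µM single dose, 1% DMSO / System: HT1080 RFP-PRO-GFP cells / Controls: DMSO and RFP-L50D-GFP cell wells / Read-out basis: GFP/RFP fluorescence ratio / Schedule: overnight compound exposure at 37 °C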
Rce1 inh – blocks yeast Ras-converting enzyme; Q03530; yeast membranes, quenched prenylated peptide cleavage fluorescence; calls only; 290,000 tested, 0.27% active;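 active = fall in fluorescence gain of 50% or more versus controls, with final raw signal at or below 3038400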;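 note: plate controls were neutral control wells for no effect and wells lacking membranes for full effect; tested at 10 µM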
eIF4H inh – inhibitors of RNA binding by human eIF4H; eIF4H fluorescence polarization binding assay; inhibition, % at 35 µM; 290,000 tested, 0.94% active; AID 2012;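 active = 50% or more with normal probe brightness, or confirmed in later tests; about a fifth of its hits are not listed in these tables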;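 note: calls also rest on retests at 20 µM and on dose response follow-up; 0% = protein and probe with vehicle and 100% = probe without protein; strong numbers were not always called active; many hits fall short of the cut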
HIV Env fusion – blocks HIV Env-driven cell-cell fusion. HeLa-JRFL Env/CEM21 cell fusion, luciferase. inhibition, % at 12.3 µM. 360,000 tested, 1.1% active. AID 651610;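 active = mean replicate inhibition score of at least 50 and every replicate individually at or above 50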;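 note: 0% = plate neutral controls and 100% = maraviroc near 300 nM; one replicate is shown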
PABP FP inh – blocks human PABP binding to poly(A) RNA. P11940. fluorescence polarization. inhibition, % at 35 µM. 290,000 tested, 1% active;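 active = 50% or more with normal probe brightness, or confirmed in later tests; about a fifth of its hits are not listed in these tables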;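 note: calls also rest on retests at 20 µM and on dose response follow-up; controls were probe without protein and protein plus probe with vehicle; some compounds called inactive have numbers as strong as hits; many hits fall short of the cut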
Target sequence (P11940 whole entry, looked up): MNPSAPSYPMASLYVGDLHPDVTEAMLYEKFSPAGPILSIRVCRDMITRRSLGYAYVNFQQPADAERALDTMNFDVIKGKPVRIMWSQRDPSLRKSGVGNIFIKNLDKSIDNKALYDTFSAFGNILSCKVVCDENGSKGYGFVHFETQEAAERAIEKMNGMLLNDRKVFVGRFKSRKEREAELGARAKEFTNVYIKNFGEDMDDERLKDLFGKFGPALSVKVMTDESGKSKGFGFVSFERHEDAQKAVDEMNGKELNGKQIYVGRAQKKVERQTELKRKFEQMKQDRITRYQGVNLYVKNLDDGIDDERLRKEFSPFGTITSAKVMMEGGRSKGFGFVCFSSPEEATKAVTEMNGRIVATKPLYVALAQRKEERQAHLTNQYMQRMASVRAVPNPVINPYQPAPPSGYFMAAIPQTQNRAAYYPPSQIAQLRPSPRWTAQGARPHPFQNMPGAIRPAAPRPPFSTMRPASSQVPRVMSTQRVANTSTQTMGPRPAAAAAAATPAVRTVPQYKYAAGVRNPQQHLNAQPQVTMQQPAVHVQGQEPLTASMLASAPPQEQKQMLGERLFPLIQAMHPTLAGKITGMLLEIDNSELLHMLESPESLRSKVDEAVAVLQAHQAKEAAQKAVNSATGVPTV
CSC inhib – cancer stem cell inhibition; cancer stem cell-like cells viability, luminescence; inhibition, % at 7.5 µM; 300,000 tested, 1.1% active; AID 2717;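 active = mean at 75% or more and at least half the replicates too; tested in HMLE shEcad cells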;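 note: 0% = median of negative and 100% = median of positive control wells; the first replicate is given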
eIF4H inh retest – further read-out of eIF4H inh, marked with its call; inhibition, %; compound at 20 µM; confirmation average;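 mean of two retest wells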
PABP FP inh retest – further read-out of PABP FP inh, marked with its call; inhibition, %; compound at 20 µM; confirmation repeats;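 mean of two retest wells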
MT1-MMP act inh RFP – second read-out of MT1-MMP act inh, no call of its own (marks repeat the call); RFP signal change, %; measured here: RFP expression control read;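 0 = vehicle wells; hits needed this value within 50% of zero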
* = called active by the depositor; i = inactive; / = not tested or not shown.

SMILES | UUG fidelity | MT1-MMP act inh | MT1-MMP act inh RFP | Rce1 inh | eIF4H inh | HIV Env fusion | PABP FP inh | CSC inhib | others
CCCCN=c1sc(C(=O)OC)cc(=O)n1CCCC | -9 | -4 | -5 | i | -2 | 10 | -11 | -3
COc1ccc(CCNC(=O)c2cccc(C(=O)NCCc3ccc(OC)cc3)n2)cc1 | -1 | 3 | -2 | i | / | 20 | / | 11
Cc1cccc([C@@H](NC(=O)OC(C)(C)C)C(=O)OC(C)(C)C)c1 | 9 | 4 | -1 | / | / | 18 | / | -5
CCOC(=O)N1CCN(C(=O)CSc2nc(=O)n3cc(C)ccc3n2)CC1 | -12 | 1 | 2 | i | / | 0 | / | -3
CC(C)C[C@H](NC(=O)c1nc[nH]c1C(=O)NCCNC(=O)OC(C)(C)C)C(=O)CNCCNC(=O)c1[nH]cnc1C(=O)N[C@@H](C)C(=O)OC(C)(C)C | 19 | 0 | 6 | / | / | 0 | / | /
COc1ccc2c(c1)Sc1ccccc1N2 | / | 6 | -22 | i | 4 | 12 | 5 | /
O=C(CCc1ccccc1)N1CCCC(Nc2ccc(F)cc2)C1 (stereo not given) | -10 | 0 | 0 | i | 2 | 24 | -5 | -4
CCN(CC(=O)NCc1cccs1)C(=O)c1ccc(S(=O)(=O)N(CC)c2ccccc2)cc1 | -3 | 7 | 2 | / | / | i | / | -5
Cn1c(CCNC(=O)c2ccc(F)cc2)nc2ccccc21 | -7 | 3 | 1 | i | -7 | -75 | -12 | /
CSC[C@@H]1NC(=S)N(c2ccc(C)cc2)C1=O | / | 0 | -5 | i | 0 | 20 | -8 | 48
COC(=O)c1ccc(CSc2nnnn2C)o1 | -7 | 12 | -2 | i | -5 | -56 | 5 | 1
CCOC(=O)C1=CN(Cc2cccc(-c3ccc4c(c3)OCO4)c2)S(=O)(=O)N(C)C1C (stereo not given) | -14 | -1 | -6 | / | / | -25 | / | /
COc1ccc(NC(=O)CCC(=O)Nc2nnc(CC(C)C)s2)cc1Cl | -14 | 0 | 0 | i | -17 | 0 | 18 | -23
Fc1ccc(Nc2nc(-c3ccncc3)nc3ccccc23)cc1 | / | / | / | i | -3 | 14 | -12 | -17
CC(=O)c1cccc(NC(=O)C(C)OC(=O)c2ccc(Br)o2)c1 (stereo not given) | -12 | -1 | 3 | / | / | -6 | / | -4
Cc1cc(-c2nnc3n2N=C(c2ccc(F)cc2)CS3)n[nH]1 | / | 1 | 1 | i | 4 | 12 | 5 | -18
CC1CCCCN1C(=O)CN1C(=O)CSc2ccc(S(=O)(=O)N3CCOCC3)cc21 (stereo not given) | -18 | -2 | 0 | i | / | 5 | / | -10
Cc1cc(C)cc(Nc2ccc3nonc3c2[N+](=O)[O-])c1 | / | 4 | 0 | i | / | -7 | / | 12
CCOc1cc(S(=O)(=O)NCc2ccc3c(c2)OCO3)c(C)cc1C | 14 | 1 | -1 | i | -3 | / | -4 | 42
CCOC(=O)C1CCN(C(=O)c2cccc(S(=O)(=O)N3c4ccccc4CC3C)c2)CC1 (stereo not given) | 7 | -1 | 1 | / | / | -2 | / | -5
Cc1ccc2cc(CCNC(=O)c3ccc(S(=O)(=O)N4CCOCC4)cc3)c(=O)[nH]c2c1 | 10 | 1 | 2 | i | -1 | / | 10 | -20
O=C(OCC(=O)N1CCCC1)c1cnc(Cl)c(Cl)c1 | -9 | 0 | -1 | / | / | 18 | / | 0
Cc1cc(C)cc(N(CC(=O)NC2CCCC2)C(=O)C2(C)CC(=O)N=C3C=CC=CN32)c1 (stereo not given) | / | 0 | 2 | i | -6 | 0 | 6 | -10
Cc1ccc(-c2csc(NC(=O)c3ccc(C)o3)n2)cc1 | / | 0 | 1 | i | 1 | 6 | -4 | /
O=c1cc(-c2ccc3c(c2)OCO3)oc2ccccc12 | -13 | -4 | 2 | i | -6 | / | -4 | -3
CC(=O)OCC1=C(C(=O)O)N2C(=O)C(NC(=O)c3ccc(COc4cccc(Cl)c4Cl)o3)C2SC1 (stereo not given) | -3 | 0 | 6 | i | 33 | -4 | -15 | 64
COC(=O)c1ccc(C2c3c(oc4ccccc4c3=O)C(=O)N2CCCN2CCOCC2)cc1 (stereo not given) | -13 | 1 | 1 | i | 0 | -113 | -3 | 7
Cn1c(=O)c2sccc2n2c(CCCC(=O)NCc3cccnc3)nnc12 | -18 | 0 | 3 | i | 9 | -4 | 2 | -9
O=C(Nc1ccccc1-c1ccccc1)C12CC3CC(CC(C3)C1)C2 | 5 | -1 | -12 | i | -4 | / | 8 | 17
COc1cc(C(=O)Nc2ccn(C)n2)ccc1OC(F)F | -18 | 2 | 2 | / | / | -5 | / | /

Gathered by group, those above containing a thiophene ring, fused or not
SMILES | UUG fidelity | MT1-MMP act inh | MT1-MMP act inh RFP | Rce1 inh | eIF4H inh | HIV Env fusion | PABP FP inh | CSC inhib | others
CCN(CC(=O)NCc1cccs1)C(=O)c1ccc(S(=O)(=O)N(CC)c2ccccc2)cc1 | -3 | 7 | 2 | / | / | i | / | -5
Cn1c(=O)c2sccc2n2c(CCCC(=O)NCc3cccnc3)nnc12 | -18 | 0 | 3 | i | 9 | -4 | 2 | -9

Next results follow:
SMILES | UUG fidelity | MT1-MMP act inh | MT1-MMP act inh RFP | Rce1 inh | eIF4H inh | HIV Env fusion | PABP FP inh | CSC inhib | others
CCOC(=O)CSc1ncnc2c1cnn2-c1ccc(Cl)cc1 | -6 | 4 | 0 | i | 6 | / | 1 | -7
Cc1cccc(/C=N/NC(=O)c2ccc(NC(=O)c3ccccc3Cl)cc2)n1 | -7 | -4 | 3 | i | 1 | 7 | 2 | /
CCc1ccc(S(=O)(=O)/N=C2\C=C(Nc3cccc(C(=O)O)c3)C(=O)c3ccccc32)cc1 | -17 | 15 | -6 | i | 6 | 1 | 25 | /
COc1ccc(/C(N)=N/OC(=O)CCc2ccccc2)cc1OC | / | 0 | 2 | i | -5 | -9 | -15 | -6
Cc1c(Cc2ccc3c(c2)OCO3)sc(NC(=O)c2ccc3ccccc3c2)c1C(N)=O | -16 | -2 | 2 | i | 25 | -14 | 8 | 30
COc1ccc(COC(=O)C2CC(=O)N(Cc3ccc(C)cc3)C2)cc1 (stereo not given) | 14 | 2 | 0 | i | -14 | / | -9 | -13
O=C(N/N=C/c1cccc(OC(=O)c2ccc([N+](=O)[O-])cc2)c1)c1cccnc1 | -34 | -1 | 0 | i | -5 | 1 | 6 | /
Cc1[nH]n(-c2ncc(-c3ccccc3)s2)c(=O)c1C(c1ccc(Cl)cc1)C(C#N)C#N (stereo not given) | / | 12 | 5 | i | 30 | 20 | 11 | 35
Cc1c(C(=O)N(Cc2ccco2)Cc2cccs2)oc2ccccc12 | -7 | -6 | -3 | / | / | -25 | / | /
Cc1ccc2[nH]c(=O)c3cc(C(=O)NCCN4CCN(C)CC4)sc3c2c1 | 0 | 5 | 2 | i | -1 | -50 | -13 | /
Cc1ccccc1-n1ccnc1SCC(=O)Nc1cccc(S(=O)(=O)NC2=NCCC2)c1 | -10 | -1 | -1 | / | / | -12 | / | -4
COCCNC(=O)/C(C#N)=C/c1cc(C)n(-c2ccc(C)cc2)c1C | / | -4 | -5 | i | 13 | -57 | 10 | 6
COC/C=C/C1=CC2=CC(=O)C(C)(OC(=O)c3cnc4ccccc4n3)C(=O)C2=CN1CCCOC(C)C (stereo not given) | -1 | 3 | 6 | i | 50 | 6 | 25 | 0 | eIF4H inh retest=29;PABP FP inh retest=43
COc1cccc(N2CCN(C(=O)C3CCN(S(=O)(=O)c4ccc5c(c4)CC(C)N5C(C)=O)CC3)CC2)c1 (stereo not given) | 4 | 3 | -10 | i | 1 | 18 | -4 | 4
Cc1ccc[n+](CC(=O)Nc2ccc(Cl)c([N+](=O)[O-])c2)c1 | -3 | -2 | -1 | i | -9 | -1 | -5 | 3
CC(C)(C)NC(=O)N1CCC(CO)(Cc2ccccc2Cl)CC1 | 10 | -4 | -1 | i | 2 | 3 | 9 | -9
Cc1ccccc1NC(=O)C1CCN(C(=O)N2CCOc3ccccc32)CC1 | 11 | / | / | i | -6 | -9 | -7 | -14
O=C(COC(=O)c1ccc(N2CCCC2=O)cc1)NCc1ccco1 | / | 0 | 0 | i | -8 | -89 | -12 | -5
N/C(=N\OC(=O)C(c1ccccc1)c1ccccc1)c1ccccn1 | -27 | 1 | 3 | / | -3 | / | 6 | -15
CCOc1ccc(Cn2nnc(C(=O)NCCc3ccccc3)c2N)cc1 | -34 | 16 | -3 | i | -2 | -27 | 0 | -11
COc1ccc(CNC(=O)[C@@H](Cc2ccccc2)NC(=O)CC[C@H]2O[C@@H](n3ccc(=O)[nH]c3=O)[C@H](O)[C@@H]2O)cc1 | -11 | 5 | 6 | / | / | -22 | / | /
CCOC(=O)c1c(S(=O)(=O)Nc2cccc(-c3ccno3)c2)c(C)n(C)c1C | -17 | -2 | 0 | i | -4 | -3 | -3 | -20
Cc1ccc(C(=O)C2CCN(C(=S)NCC3CCCO3)CC2)cc1 (stereo not given) | -24 | 2 | -13 | i | 0 | -4 | -7 | 1
COc1ccc(CCNC(=O)CSc2nc(O)cc(=O)[nH]2)cc1OC | -2 | 5 | 4 | i | 9 | -26 | 7 | -13
CCN(C(=O)COC(=O)c1cccc(S(=O)(=O)NCc2ccccc2)c1)c1ccccc1 | -7 | 2 | -6 | / | / | 7 | / | /
Cc1cc(C(=O)COC(=O)CC2Sc3ccccc3NC2=O)c(C)n1-c1ccc2c(c1)OCO2 (stereo not given) | -3 | -4 | -1 | i | 31 | -6 | -7 | -1
CC(C)(C)n1ncc2c(=O)n(Cc3c(F)cccc3Cl)cnc21 | -2 | -4 | -9 | i | -9 | / | 0 | /
O=C(NCC(c1ccc(F)cc1)N1CCOCC1)c1cccc(Br)c1 (stereo not given) | / | -4 | -2 | i | 0 | -2 | -12 | -7
COC(=O)COc1ccc(/C=C2/SC(=O)N(CC(=O)N3CCCC3)C2=O)cc1Br | / | 1 | 6 | i | 7 | 0 | 3 | -15
CCOc1ccc(-c2nnc(Nc3ccc(OC)c(C(=O)N4CCCCC4)c3)c3ccccc23)cc1 | -4 | -2 | -7 | i | -5 | 1 | -3 | 17
Cc1ccc(C)c(S(=O)(=O)Nc2ccc3[nH]c(=O)[nH]c3c2)c1 | -23 | 3 | 0 | i | 7 | 10 | 6 | -5
Cc1c(NC(=O)c2cc(=O)[nH]c(=O)[nH]2)c(=O)n(-c2ccccc2)n1C | -14 | -1 | -5 | i | -10 | -1 | -6 | -6
CCCCn1c2ccccc2c2nnc(SCCN3CCCCC3)nc21 | -31 | 0 | -2 | i | -9 | 8 | -3 | /
CCc1ccc(Nc2n[n+](-c3ccccc3)c(-c3ccc(OCc4ccccc4)cc3)s2)cc1 | -22 | 6 | -11 | i | -13 | -55 | 4 | 27
COc1ccc(OCC(=O)Nc2cccc(-c3nc4ccccc4o3)c2)cc1 | 0 | 8 | 1 | i | 6 | -129 | -4 | -7
CN(C)c1cccc(C(=O)Nc2ccc(N3CCOCC3)cc2)c1 | 1 | 3 | 1 | i | -6 | 10 | 3 | -17
NN/C(=C\[N+](=O)[O-])Nc1ccc(Cl)cc1 | -15 | -1 | -4 | i | -11 | -247 | 7 | 54
CCOC(=O)C1(Cc2ccccc2C)CCCN(C(=O)CN2CCCCC2=O)C1 (stereo not given) | -16 | -1 | 2 | i | 1 | -391 | 20 | -4

Nothing new here: an excerpt of the list.
SMILES | UUG fidelity | MT1-MMP act inh | MT1-MMP act inh RFP | Rce1 inh | eIF4H inh | HIV Env fusion | PABP FP inh | CSC inhib | others
CCCCN=c1sc(C(=O)OC)cc(=O)n1CCCC | -9 | -4 | -5 | i | -2 | 10 | -11 | -3
COc1ccc(CCNC(=O)c2cccc(C(=O)NCCc3ccc(OC)cc3)n2)cc1 | -1 | 3 | -2 | i | / | 20 | / | 11
Cc1cccc([C@@H](NC(=O)OC(C)(C)C)C(=O)OC(C)(C)C)c1 | 9 | 4 | -1 | / | / | 18 | / | -5

Source: PubChem (several laboratories)
